Source: PubChem BioAssay
Vif A3G = inhibitors of Vif binding to APOBEC3G peptide, primary screen, biochemical, TR-FRET, GST-Vif 1-94, biotin-A3G peptide, dose response retest (AID 1117319). TR-FRET GST-Vif / biotin-A3G peptide binding; higher % means a stronger effect; test concentration not given here; strong numbers were not always called active. inhibition, %; hits with a dose series show IC50 in µM. 0.57% of 260,000 active;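 active means above the screen mean plus three standard deviations and confirmed in dose response; inconclusive means results disagree or hit not tested in dose response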;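 further: Vif residues 1-94 fused to GST binding biotinylated APOBEC3G peptide 110-148; 0% = full assay without inhibitor and 100% = GST in place of GST-Vif; retest series ran down from 100 µM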
A1 inh = inhibitors of the anti-apoptotic protein A1, read as caspase activation; MEF A1-2A-BIM cells, Caspase-Glo 3/7 luminescence, 3 h; percent of clofoctol response, vehicle zero; caspase activation, % (no concentration beside the values); 0.066% of 330,000 active; AID 2462;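 active means over half of replicate activation scores above 10%, or exactly half above 10 with the replicate mean above 10; inconclusive means replicate mean below 10 yet half the replicates above 10; inactive means over half of replicates below 10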;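 further: wells of about 30 µL received 50 nL stock; many hits fall short of the cut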
B2AR ag = agonists of human beta-2 adrenergic receptor inducing internalization; Am2.2-beta2AR cells, FAP receptor internalization, flow cytometry; reference of the scale not given here; response, % (no concentration beside the values); 0.43% of 340,000 active; AID 504454;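 active means response above a set limit, near 3 SD of response in nonfluorescent compounds, cut at about 42% in these data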;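 further: stock transfer was 100 nL into about 11 µL; a reference agonist was the positive control; negative values mostly stem from fluorescent compounds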
Target sequence (P07550 whole entry, looked up): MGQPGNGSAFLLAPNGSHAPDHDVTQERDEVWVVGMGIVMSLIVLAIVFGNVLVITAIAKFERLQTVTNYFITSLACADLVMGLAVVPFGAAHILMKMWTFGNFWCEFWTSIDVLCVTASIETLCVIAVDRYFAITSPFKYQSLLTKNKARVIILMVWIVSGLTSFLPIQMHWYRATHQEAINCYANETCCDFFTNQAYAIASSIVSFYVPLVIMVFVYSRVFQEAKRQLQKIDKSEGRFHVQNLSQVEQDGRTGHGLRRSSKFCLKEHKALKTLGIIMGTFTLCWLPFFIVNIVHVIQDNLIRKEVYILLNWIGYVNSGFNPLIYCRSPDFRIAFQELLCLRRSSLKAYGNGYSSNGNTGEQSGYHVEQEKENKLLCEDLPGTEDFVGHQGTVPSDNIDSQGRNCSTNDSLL
UCH37 inh = blocks the human deubiquitinase UCH37; Q9Y5K5; purified proteasome/UCH37, Ub-AMC cleavage fluorescence; inhibition, % (concentration not given with the values); 0.33% of 330,000 active; AID 588478;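 active means mean of two replicates above 20%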;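 further: 0% = compound-free wells with enzyme and 100% = wells lacking proteasome; stock transfer was 100 nL into about 20 µL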
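Schedule: 30 min plus 25 min, room temperature / Material: human UCH37 within purified proteasomes / Technique: AMC fluorescence intensity at 355/460 nm / Buffer or medium: pH 7.4 Tris-HCl (50 mM) with ovalbumin, ATP-MgCl2, DTT / Controls: wells without proteasome as full block, compound-free enzyme plus substrate as uninhibited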
Ecoli growth = blocks Escherichia coli growth; OD600, 23 h; stronger effect = lower value; OD600 absorbance (concentration not given with the values); 0.21% of 330,000 active;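 active means OD600 absorbance below the run mean of sample wells minus 3.6 SD, in any replicate, cut at about 0.56 in these data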;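 further: stock transfer was 300 nL into about 60 µL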
HNF4A DNA FP = change in binding of human HNF4 alpha to DNA | P41235 | HNF4a-FITC DNA binding, fluorescence polarization, 1 h | activity change, % at 10 µM | 0.3% of 360,000 active; in the data active means activity change above about 30%, passing the limit was not always enough;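 further: controls were the assay level and a saturating level of protein; the project sought stronger binding though the title names inhibitors; some compounds called inactive have numbers as strong as hits; positive values seem to mean higher polarization but the record does not say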
Target sequence (P41235 whole entry, looked up): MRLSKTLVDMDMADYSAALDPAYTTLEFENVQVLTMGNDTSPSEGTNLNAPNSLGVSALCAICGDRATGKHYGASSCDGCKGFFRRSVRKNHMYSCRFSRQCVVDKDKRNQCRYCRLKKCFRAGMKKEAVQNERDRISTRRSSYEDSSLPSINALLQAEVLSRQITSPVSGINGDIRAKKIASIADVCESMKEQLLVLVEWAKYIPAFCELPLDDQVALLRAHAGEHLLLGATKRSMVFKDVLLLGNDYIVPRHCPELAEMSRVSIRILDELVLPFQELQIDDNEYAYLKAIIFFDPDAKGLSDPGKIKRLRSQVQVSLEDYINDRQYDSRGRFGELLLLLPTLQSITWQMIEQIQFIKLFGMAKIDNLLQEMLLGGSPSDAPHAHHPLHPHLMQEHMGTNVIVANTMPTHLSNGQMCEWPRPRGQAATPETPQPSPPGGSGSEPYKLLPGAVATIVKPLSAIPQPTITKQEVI
LANA-H2B inh = blocks KSHV LANA binding to histone H2A/H2B; Q9QR71; inhibition, % (test concentration not listed); AID 2629; 0.6% of 320,000 active; cell-free LANA-H2A/H2B peptide, fluorescence polarization; in the data active means inhibition mostly above about 10%, no sharp cut-off; inactive means mostly below about 6.7%;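 further: stock transfer was 7.5 nL into about 10 µL; 0% = median of vehicle wells and 100% = median of positive control wells; one replicate is shown; the record names a cut of 25% in any replicate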
* hit, by the source's call; i = inactive; u = inconclusive; x = not tested or not shown; & = joins results of further samples.

SMILES	LANA-H2B inh	B2AR ag	UCH37 inh	Ecoli growth	Vif A3G	A1 inh	HNF4A DNA FP
CC(C)NS(=O)(=O)c1ccc(NC(=O)Cc2cccs2)cc1	1.7	0	-1.5	0.7	-7%	-2.1	-2.5
O=C(NCCc1ccccc1)c1ccccc1F	5.6	1	2.1	0.66	2%	-1.2	2.0
O=C(NCc1ccc2c(c1)OCO2)c1ccc(CN2CCc3ccccc3C2)cc1	-1.3	0	-1.3	0.72	-15%	0.0	0.0
Cc1ccc(C(=O)OCC(=O)N2C(C)CCCC2C)cc1S(=O)(=O)N1CCOCC1 (stereo not given)	-2.7	2	-0.1	0.6	9%	-0.3	0.9
Cc1cc(-c2ccc(C)c(S(=O)(=O)NCC3CCN(Cc4cccc(F)c4)CC3)c2)on1	-2.3	7	1.3	0.68	x	0.4	2.6
CCOC(=O)c1cc2nc(-c3ccco3)cc(C(F)(F)F)n2n1	1.0	-10	-54	0.78	15%	-0.7	-1.9
COc1ccc(S(=O)(=O)Cc2ccc(C(=O)N3CCN(C(=O)c4ccco4)CC3)o2)cc1	5.7	-21	1.3	0.77	1%	0.1	-4.9
Cc1coc2cc3oc(=O)c(CC(=O)N(C)CC(=O)O)c(C)c3cc12	-0.7	2	-88	0.7	-3%	0.7	-4.2
COc1ccc(NC(=O)Nc2ccc3c(c2)CCC3)cc1	4.0	4	5.8	0.65	x	-4.9	2.7
CC1=C(C(=O)OC(C)C)C(c2cccs2)n2ncnc2N1 (stereo not given)	4.2	-6	3.2	0.74	-1%	0.6	-1.6
CCOC(=O)N1CCN(CC(O)c2c[nH]c3ccc(OC)cc23)CC1 (stereo not given)	2.3	-1	0.7	0.67	1%	0.2	-1.6
COc1ccc2[nH]c(=O)c(CNc3cccc(C)c3)cc2c1	5.3	-5	-4.6	0.8	18%	0.8	-0.3
C=C(C)CSc1nc2sc3c(c2c(=O)n1-c1ccc(C)cc1)CCN(C)C3	x	9	-47	0.69	4%	x	5.3
CCn1cnc2c1c(=O)[nH]c(=O)n2Cc1ccccc1	2.1	2	0.3	0.66	2%	0.1	0.9
Cc1ccc(NC(=O)CCC(=O)N/N=C/c2ccc(O)cc2O)cc1	-3.2	1	x	x	3%	0.6	-4.3
Cc1[nH][nH]c(=O)c1C(c1c(C)[nH][nH]c1=O)c1cn(Cc2cccc3ccccc23)c2ccccc12	1.7	2	83*	0.75	u	1.7	11
O=[N+]([O-])c1nn(-c2ccc(Cl)cc2)n(O)c1=NCc1ccccc1	-6.9	3	7.2	0.6	-4%	-0.7	0.2
OC(CNCC(c1ccc(Cl)cc1Cl)c1c[nH]c2ccccc12)c1ccccc1 (stereo not given)	-2.8	23	5.6	0.45*	x	1.8	0.8
CCN1C[C@@H]2[C@@H]3C(=O)N(Cc4ccccc4)C(=O)[C@@H]3[C@](CC)(C(=O)OC)N2C1=NCc1ccccc1	x	-11	-0.2	0.69	-5%	x	-1.1
CCN(CC)c1c([N+](=O)[O-])c(=O)oc2ccccc12	-1.9	2	2.7	0.64	9%	-1.1	1.9
O=C1c2c(Br)c(Br)c(Br)c(Br)c2C(=O)N1c1ccccn1	0.3	19	0.6	0.67	x	0.5	-4.8
COc1ccc(C2C(C(C)=O)=C(O)C(=O)N2CCO)c(OC)c1 (stereo not given)	0.2	-4	6.5	0.77	-1%	0.1	3.4
CCCCS(=O)CC(CS(=O)CCCC)OC(=O)c1ccc(C)cc1 (stereo not given)	4.3	-3	1.6	0.71	1%	-0.2	1.1
CC(C)c1cccc(O)c(=O)c1	3.6	-4	1.4	0.67	11%	0.1	6.4
COc1ccc(CNC(=O)Cc2c(C(=O)O)[nH]c3ccccc23)c(OC)c1	-3.7	11	1.7	0.68	x	0.5	2.0

Reprinted from the part before: 2 compounds, followed by the next part.
SMILES	LANA-H2B inh	B2AR ag	UCH37 inh	Ecoli growth	Vif A3G	A1 inh	HNF4A DNA FP
CC(C)c1cccc(O)c(=O)c1	3.6	-4	1.4	0.67	11%	0.1	6.4
COc1ccc(CNC(=O)Cc2c(C(=O)O)[nH]c3ccccc23)c(OC)c1	-3.7	11	1.7	0.68	x	0.5	2.0
COC(=O)C1(Cc2cc(-c3ccc(Cl)cc3)no2)CCN(C(=O)OC(C)(C)C)CC1	-5.9	-5	2.0	0.8	x	-0.7	-0.7
COc1cc(/C=N/NC(=O)Nc2ccccc2)ccc1OC(C)=O	1.5	1	x	x	-2%	-2.0	3.9
c1ccc(C2CC(c3cccs3)=NN2c2ccccc2)cc1 (stereo not given)	-1.7	8	i	0.73	x	-0.6	-2.0
Cc1cccc(S(=O)(=O)N2CCn3cccc3C2C)c1 (stereo not given)	-0.3	4	1.3	0.66	2%	0.0	7.2
CC(=O)Nc1sc(C)c(C)c1C(=O)OC(C)C	8.6	-5	2.0	0.7	-3%	2.9	1.8
CCCn1cc(SCC(=O)NCC2CCCO2)c2ccccc21 (stereo not given)	-2.0	-6	1.7	0.7	-5%	-0.6	2.0
COc1ccc2c(c1)sc(=NC(=O)CS(=O)(=O)c1ccc(F)cc1)n2C	-2.7	6	1.6	0.7	2%	-0.3	1.3
CC(=NN1CC(=O)NC1=O)c1ccc([N+](=O)[O-])o1	x	3	8.1	0.13*	-6%	x	-1.3
CCOC(=O)CCC(=O)Nc1ccc(S(=O)(=O)Nc2cc(OC)nc(OC)n2)cc1	3.8	8	1.0	0.67	x	0.6	1.1
CN(C)CCN(C(=O)c1ccc2ccccc2c1)c1nc2c(F)cccc2s1	-4.2	4	5.4	0.68	2%	-0.9	1.1
Cc1ccc(C(C(=O)NC(C)(C)C)N(CC2CCCO2)C(=O)Cn2nnc(-c3ccc(C)o3)n2)cc1 (stereo not given)	3.4	9	0.5	0.67	2%	0.2	1.0
COC(=O)C(CSCc1ccccc1)NC(=O)CSc1nc(C)cc(=O)[nH]1 (stereo not given)	-0.2	2	3.6	0.68	5%	-0.5	-2.4
CC(=O)c1c(C)[nH]c(C(=O)CSc2nc3ccccc3n2C)c1C	-11	-11	6.2	0.67	0%	-0.3	0.6
O=C(CCS(=O)(=O)c1ccc(Br)cc1)NCc1ccc(F)cc1	2.0	0	5.1	0.73	x	0.6	-12
C(=NN1CCCCCC1)c1ccc2ccccc2n1	x	0	4.4	0.65	-8%	x	7.1
Cn1c(Cl)nc2c1c(=O)n(Cc1cccc(Br)c1)c(=O)n2C	-3.1	2	1.5	0.65	-4%&-1%	1.5	-1.6
COc1ccc(-n2c(C)nc3c(cnn3-c3ccc(Cl)cc3)c2=O)cc1	0.3	0	1.7	0.72	-8%	0.3	3.6
CC1Cc2ccccc2N1C(=O)CCS(=O)(=O)c1ccc2c(c1)NC(=O)CS2 (stereo not given)	-2.3	-3	4.0	0.71	-5%	0.0	8.9
COc1ccc(NC(=O)c2c(C)nn(-c3ccccc3)c2Cl)cc1	2.0	-8	5.3	0.66	x	-0.8	-1.4
CCN(C(=O)CN1CCN(c2cccc(Cl)c2)CC1)c1c(N)n(Cc2ccccc2)c(=O)[nH]c1=O	0.4	14	4.9	0.71	4%	-0.5	-0.2
CCOc1ccc(N/C(N)=N/c2nc(CSc3nnnn3-c3ccccc3)cc(=O)[nH]2)cc1	3.0	-3	1.5	0.74	0%	0.0	-2.6
COc1cccc(CNC(=O)CN(C)S(=O)(=O)c2cccc3cccnc23)c1	0.6	-4	5.1	0.7	x	0.7	-0.9
COc1cc(C(C(=O)Nc2c(C)cccc2C)N(C)C(=O)c2ccc(-n3cnnn3)cc2)ccc1O (stereo not given)	6.8	-31	2.6	0.68	x	0.3	-0.8
CC(NC(=O)c1cccc(F)c1)C1CC2CCC1C2 (stereo not given)	1.7	0	3.2	0.64	x	0.6	-0.3
Cc1cc(NC(=O)CN2C(=O)NC(C)(c3ccccc3)C2=O)no1 (stereo not given)	-8.4	-2	2.6	0.68	3%	1.2	-1.1

New compounds follow:
SMILES	LANA-H2B inh	B2AR ag	UCH37 inh	Ecoli growth	Vif A3G	A1 inh	HNF4A DNA FP
Nc1c(Cl)ncnc1NCC(O)CO (stereo not given)	-1.0	-3	1.8	0.62	29%	0.1	0.9
CCOc1ncccc1C(=O)OCC(=O)Nc1cccc(S(=O)(=O)N2CCCCCC2)c1	0.0	7	2.0	0.62	x	0.8	-0.3
COC(=O)c1cc(CSc2ncnc3sccc23)oc1C	-2.4	0	2.3	0.66	-3%	0.1	5.1
CCOC(=O)C1CCCN(C(=O)Cc2c(F)cccc2Cl)C1 (stereo not given)	-0.9	-1	2.4	0.66	5%	0.1	9.2
CCN1CCN(S(=O)(=O)c2cc(OC)ccc2OC)CC1	-0.2	-9	5.3	0.67	0%	1.4	-1.7
CN(C)C(=O)c1ccccc1NC(=O)Cc1cccc2ccccc12	-4.2	4	2.0	0.7	x	-0.1	3.9
Cc1ccc(C(C(=O)NCc2ccco2)N(C(=O)Cn2nnc3ccccc32)c2ccccc2)o1 (stereo not given)	-0.7	5	1.7	0.73	-2%	0.3	1.7
CC1(C)CC(=O)/C(=C(\O)CCCN2C(=O)c3ccccc3C2=O)C(=NCC(=O)O)C1	1.1	-8	1.4	0.67	-4%	-0.7	-1.0
O=C(/C=C\c1cccs1)N1CCN(Cc2ccc3c(c2)OCO3)CC1	-8.1	-5	3.5	0.67	-1%	0.7	-1.2
CCc1ccccc1NC(=S)NC1CC2CCC(C1)N2Cc1ccc(F)cc1 (stereo not given)	1.2	-4	-1.1	0.64	u	-0.5	0.5
COc1ccc(C(C)NC(=O)c2ccc(Cl)cc2)cc1OC (stereo not given)	-4.7	-1	5.7	0.7	-1%	0.1	-0.2
CCOC(=O)C1CCCN(C(=O)c2cc(S(=O)(=O)N(C)C)ccc2N2CCCC2)C1 (stereo not given)	x	1	1.2	0.68	-5%	0.9	1.0
COc1ccc2cc(C(=O)/C=C/c3cc(OC)c(OC)c(OC)c3)ccc2c1	5.8	-4	-3.8	0.73	x	-0.1	0.4
COc1cc(/C=C2/SC(=S)N(Cc3ccccc3)C2=O)cc(OC)c1O	2.5	-254	0.2	0.63	-4%	-1.8	48*

Random draw from the library; overall some 2.1% were active at least once.
